KCNQ2 enhance: KCNQ2 (rat) channel potentiation; O88943; CHO-K1 KCNQ2, FluxOR thallium flux fluorescence; stronger effect = higher value; B-score at 10 µM; 310,000 compounds, 0.54% hits; AID 2239;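 active means fluorescence ratio B-score at least 3 SD of library B-scores, with initial fluorescence B-score within 3 SD, cut at about 5.3 in these data; same plate scores as AID 2156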;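 further: B-score of peak minus minimum over baseline fluorescence ratio after K+ and Tl+ stimulus; positive B-score means potentiation of KCNQ2 with more thallium influx and brighter signal; only the inactives scoring about 0 or higher are listed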
Target sequence (O88943 whole entry, looked up): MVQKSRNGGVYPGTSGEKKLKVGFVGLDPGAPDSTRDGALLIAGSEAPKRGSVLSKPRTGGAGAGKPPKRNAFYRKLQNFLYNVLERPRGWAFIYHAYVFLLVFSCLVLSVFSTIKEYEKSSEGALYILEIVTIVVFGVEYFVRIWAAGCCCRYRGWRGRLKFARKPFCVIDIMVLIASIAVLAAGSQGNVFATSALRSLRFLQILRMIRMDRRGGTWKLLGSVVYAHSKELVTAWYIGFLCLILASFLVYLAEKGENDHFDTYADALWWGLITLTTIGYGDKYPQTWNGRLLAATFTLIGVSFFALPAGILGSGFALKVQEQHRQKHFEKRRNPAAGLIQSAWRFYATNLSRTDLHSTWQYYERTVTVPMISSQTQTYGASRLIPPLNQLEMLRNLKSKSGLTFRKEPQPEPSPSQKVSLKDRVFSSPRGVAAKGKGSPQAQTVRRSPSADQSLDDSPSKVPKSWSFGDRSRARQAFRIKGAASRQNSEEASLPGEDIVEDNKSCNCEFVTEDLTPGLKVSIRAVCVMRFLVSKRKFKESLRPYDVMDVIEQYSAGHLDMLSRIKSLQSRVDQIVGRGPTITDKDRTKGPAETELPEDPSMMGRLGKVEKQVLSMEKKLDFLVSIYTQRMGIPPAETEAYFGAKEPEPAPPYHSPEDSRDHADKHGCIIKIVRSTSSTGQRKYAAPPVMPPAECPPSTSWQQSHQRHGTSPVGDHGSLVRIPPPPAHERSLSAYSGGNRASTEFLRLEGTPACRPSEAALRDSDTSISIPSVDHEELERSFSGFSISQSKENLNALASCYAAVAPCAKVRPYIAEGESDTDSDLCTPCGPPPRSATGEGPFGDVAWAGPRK
KCNQ2 enhance baseline: also measured in KCNQ2 enhance; calls as there; B-score; compound at 10 µM; measured here: initial fluorescence intensity artifact check;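 brightness before thallium and not channel activity; 0 = typical well and far values either way flag optical interference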
Active calls of the source: *.

| structure | KCNQ2 enhance | KCNQ2 enhance baseline |
| --- | --- | --- |
| COc1ccc(-c2cc(C(=O)N3CCCc4ccccc43)no2)cc1 | 0.89 | -0.46 |
| COCCCN(C(=O)Cc1csc(-c2cccc(Cl)c2)n1)c1c(N)n(Cc2ccccc2)c(=O)[nH]c1=O | 0.89 | 1.15 |
| CC(=O)c1cnc(Nc2cccc(C)c2)s1 | 0.35 | -1.99 |
| COCCOc1nc2c(c(=O)n(C)c(=O)n2C)n1Cc1cccc(OC)c1 | 1.45 | 1.44 |
| CCN1CCN(C(=O)NC2CC(=O)N(c3ccc(OC)cc3)C2)CC1 (stereo not drawn) | 0.2 | 0 |
| COc1ccccc1NC(=S)Nc1cccc(F)c1 | 0.23 | 0 |
| CCOc1ccc(OCC(O)CN2CCN(S(=O)(=O)c3cccc(C(F)(F)F)c3)CC2)cc1 (stereo not drawn) | 1.71 | -1.21 |
| C/C(CC(=O)Nc1cccc(Cl)c1)=N\NC(=O)Cc1ccc(Cl)cc1 | 1.27 | -1.17 |
| COc1ccc(C(=O)N2CCc3ccccc32)cc1 | 0.01 | -0.65 |
| CCOC(=O)C1=C(C)NC(C)=C(C(=O)OCC)C1C(=O)OCC(=O)N(C)C | 0.97 | -1.35 |
| CCOc1cc(S(=O)(=O)NCc2ccncc2)c(C)cc1C | 0.01 | -0.11 |
| O=C(O)c1ccccc1NN=C1CCCCC1 | 0.81 | -0.8 |
| Cc1csc(NC(=O)C2C3C=CC(C3)C2C(=O)O)n1 (stereo not drawn) | 1.64 | -1.92 |
| Cc1cc(C(=O)NC(C)c2ccc3c(c2)OCO3)cs1 (stereo not drawn) | 4.42 | -1.68 |
| CCC(C)Sc1nc(O)cc(=O)[nH]1 (stereo not drawn) | 0.07 | -0.83 |
| c1ccc(-c2csc(Nc3ccccn3)n2)cc1 | 0.36 | -1.98 |
| O=C(c1cc2ccccc2o1)N1CCN=C1SCc1cccnc1 | 0.66 | 2.77 |
| CC(=O)Nc1ccc(S(=O)(=O)NCC(=O)OCc2cc(=O)oc3ccc4ccccc4c23)cc1 | 0.09 | 0.75 |
| CC(=O)OC[C@]1(OC(C)=O)C[C@@]23CC[C@H]4[C@@](C)(CCC[C@@]4(C)C(=O)O)[C@@H]2CC[C@@H]1C3 | 0.02 | 0.36 |
| CC(C)C(=O)NC(=S)Nc1ccccc1C(F)(F)F | 0.54 | -0.14 |
| COc1cc(OC)cc(C(=O)Nc2cccc3c2CCCC3)c1 | 1.18 | -0.18 |
| O=S(=O)(Nc1cccc(-c2cn3cccnc3n2)c1)c1ccc(Cl)cc1 | 1.61 | -1.01 |
| CC(=O)C1=C(O)C(=O)N(c2nnn(C)n2)C1c1cccs1 (stereo not drawn) | 1.71 | 0.04 |
| CC(OC(=O)/C=C/c1ccc2ccccc2n1)C(=O)NCc1ccccc1 (stereo not drawn) | 0.73 | 0.23 |
| C[C@H](NC(N)=O)C(=O)OCC(=O)NCc1cccs1 | 0.06 | -1.87 |
| CC1CCC(NC(=O)C2CCN(C(=O)NC3CCCCC3)CC2)CC1 (stereo not drawn) | 1.85 | -0.33 |
| Cc1cc(C)n2c(SCC(=O)Nc3c(C)n(C)n(-c4ccccc4)c3=O)nnc2n1 | 0.52 | 0.01 |
| CCCCOC(=S)NC(=O)c1sc2ccccc2c1Cl | 17* | 0.35* |
| CN(CC(=O)Nc1ccc(F)cc1)C(=O)COC(=O)CN1C(=O)NC2(CCCC2)C1=O | 1.2 | -0.38 |
| Cc1sc2ncnc(N3CCC(C(=O)NCC(=O)Nc4ccc(F)c(F)c4)CC3)c2c1C | 0.14 | -2.56 |
| Cc1cccnc1NC(=O)NC(=O)c1ccc(C(C)(C)C)s1 | 0.32 | -1.32 |
| Cc1ccc(S(=O)(=O)N(CC(=O)NCc2ccccn2)c2ccc(Cl)cc2)cc1 | 0.48 | -0.84 |
| CCCCOc1ccc(C(=O)N2CCCC2C(=O)O)cc1 (stereo not drawn) | 0.27 | 1.58 |
| CCn1ccnc1CNC(=O)c1ccc2oc(C(C)C)nc2c1 | 0.93 | -0.57 |
| COCc1cc(=O)n2[nH]c(-c3ccco3)cc2n1 | 1.23 | -0.07 |
| Cc1ccc(CNC(=O)CCc2c(C)[nH]c(=O)c(C#N)c2C)cc1 | 1.33 | -0.36 |
| Cc1ccc2c(c1)C1(SCCS1)C(=O)N2 | 0.6 | 0.48 |
| O=C(COC(=O)c1ccco1)Nc1ccc(Br)cc1 | 1.89 | 0.02 |
| O=c1oc(-c2ccccc2)nc2c1cnn2-c1ccccc1 | 1.78 | -0.41 |
| O=C(Nc1nccs1)c1cn(-c2ccccc2)nc1-c1ccncc1 | 0.04 | -0.67 |
| CCOC(=O)C1=NN(C(=O)c2ccc(OC)cc2)C(O)(c2ccc(Cl)cc2)C1 (stereo not drawn) | 16.2* | 1.62* |
| N#C/C(=C\c1ccc(OCC(N)=O)cc1)S(=O)(=O)c1ccccc1 | 0.04 | 0.15 |
| Cc1cc(C)c(S(C)(=O)=O)c(N(C)N)n1 | 0.73 | -0.4 |
| COc1ccc2nc(COC(=O)c3cccs3)c(C(C)=O)[n+]([O-])c2c1 | 0.46 | 0 |
| COc1ccc(CC(=O)c2ccc(O)cc2O)cc1OC | 0.03 | -0.76 |
| Cn1c(=O)oc2cc(S(=O)(=O)N3CCN(c4ccc(F)cc4)CC3)ccc21 | 0.25 | 2.19 |
| Cc1ccc(NC(=O)C[n+]2cc(-c3ccc(C)cc3)n3c2CCC3)cc1 | 0.69 | -0.42 |
| CCCCCCSc1nnc2[nH]c(=O)cc(N)n12 | 0.09 | 1.92 |
| CCCCOC(=O)c1ccc(NC(=O)c2ccc(F)cc2F)cc1 | 0.72 | 0.63 |
| CCOc1ccc(OCC)c(S(=O)(=O)NCc2cccnc2)c1 | 0.53 | -0.2 |
| COCCCNC(=S)NCCNc1nc2cc(C)c(C)cc2cc1C#N | 1.16 | -0.18 |
| O=C(c1nsnc1-c1ccccc1O)N1CCCCC1 | 0.05 | -1.22 |
| O=c1cc[nH]c2ccc(OC(F)(F)F)cc12 | 0.48 | -1.79 |
| CCn1c(-c2cc(OC)ccc2OC)csc1=Nc1c(C)n(C)n(-c2ccccc2)c1=O | 0.16 | 0.38 |
| O=C(c1ccccc1)c1ncc(C(F)(F)F)cc1Cl | 0.12 | 0.49 |
| CC(=O)Nc1ccc(Nc2c3c4c(cccc4n(C)c2=O)C(=O)c2ccccc2-3)cc1 | 0.47 | 0.73 |
| O=S(=O)(c1ccccc1)N1CC=C(c2ccccc2)CC1 | 0.86 | -2.3 |
| COc1ccc2[nH]c3c(c2c1)[C@@H]1CCN2C(=O)CCC[C@H](C3)[C@H]12 | 0.24 | 1.01 |
| O=C1CC(NCCN2CCOCC2)C(=O)N1Cc1ccc(N2CCCC2=O)cc1 (stereo not drawn) | 0.04 | 2.76 |
| O=C(COc1cccc2ccccc12)N/N=C/c1ccccc1OCc1ccc(C(=O)O)cc1 | 2.74 | -1.67 |

Continued.
| structure | KCNQ2 enhance | KCNQ2 enhance baseline |
| --- | --- | --- |
| Cc1cccc(NC(=O)NCc2ccc3c(c2)OCO3)c1 | 11.1* | -1.53* |
| CCOC(=O)N1CCN(c2c(N3CCN(c4ccc(OC)cc4)CC3)c(=O)c2=O)CC1 | 1.46 | 0.86 |
| O=C(/C=C/c1cnc2ccccc2n1)NC1CCCCCC1 | 0.34 | 0.15 |
| CCn1c(SCCC(C)C)nnc1-c1c[nH]c2ccccc12 | 0.05 | -0.51 |
| CCOC(=O)Cc1csc(/N=C/c2c(O)n(-c3ccccc3C(F)(F)F)c(=O)c3ccccc23)n1 | 1.17 | -1.52 |
| FC(F)(F)c1cccc(OCC2CNC(=S)O2)c1 (stereo not drawn) | 0.83 | 0.51 |
| N#CCCCCn1c(-c2cncs2)nc2ccccc21 | 0.13 | -0.26 |
| C/C(=N\OCC(=O)Nn1c(=O)[nH]c2ccccc2c1=O)c1ccccc1 | 1.76 | 0.35 |
| COc1ccc(/C=N/OCC(=O)NC(c2ccccc2)c2ccccc2)cc1OC | 1.31 | -0.14 |
| Fc1ccc(/C=N/Nc2nnnn2-c2ccccc2)cc1 | 0.6 | 0.41 |
| COC(=O)c1c(N)nc(C)n1-c1ccc(OC)cc1 | 1.41 | -2.31 |
| NCCNC(=O)Cc1cccc(NC(=O)Cc2ccc(Nc3ncnc4c3ncn4[C@@H]3O[C@H](CO)[C@@H](O)[C@H]3O)cc2)c1 | 0.09 | -1.43 |
| Cc1ccccc1NC(=O)CSCCO | 0.04 | -1.17 |
| COc1cc(NC(=O)Cn2ccsc2=N)cc(OC)c1 | 1.47 | 0.31 |
| CC(C(=O)Nc1nccs1)N1C(=O)c2ccccc2S1(=O)=O (stereo not drawn) | 0.65 | -0.75 |
| O=C(c1nc2ccccn2c1CN1CCCC(OCc2ccccc2)C1)N1CCCC1 (stereo not drawn) | 2.18 | -0.15 |
| Cc1ccc(Sc2ccc(C(=O)NC(C)C)cc2[N+](=O)[O-])cc1 | 0.7 | 0.43 |
| OC(CNCc1cccs1)c1ccccc1 (stereo not drawn) | 1.73 | 0.35 |
| CC(=O)c1ccc(NC(=O)CCn2c(=S)oc3ccccc32)cc1 | 1.05 | 0.03 |
| Nc1nc(CSc2ccc(Cl)cc2)nc(N2CCCCC2)n1 | 0.81 | -1.89 |
| CNC(=O)c1ccccc1S(=O)c1ccccc1C#N (stereo not drawn) | 0.09 | -1.13 |
| O=C(N/N=C(\CC(=O)c1cccs1)C(F)(F)F)c1cccnc1 | 0.03 | 0.87 |
| CCOc1cc(S(=O)(=O)N(CC)CC)ccc1Br | 0.26 | -0.2 |
| CCCCC(=O)Nc1ccc(NC(=O)CCCC)nc1 | 0.02 | 0.33 |
| CCN(Cc1nc2cc(OC)c(OC)cc2c(=O)[nH]1)C(=O)c1ccc(S(=O)(=O)N(C)C)cc1 | 2.23 | -1.94 |
| Cc1ccccc1CS(=O)(=O)c1cnc2ccccc2n1 | 1.54 | 0.1 |
| NC(=O)c1ccsc1NC(=O)c1ccc(N2CCCC2=O)cc1 | 1.22 | -0.15 |
| COCCOC(=O)c1[nH]c2c(c1C)C(=O)CC(c1ccco1)C2 (stereo not drawn) | 0.94 | -0.07 |
| COc1ccccc1-c1n[nH]c(=S)n1N | 2.21 | -0.18 |
| O=C(OCc1cc(=O)n2cc(Br)ccc2n1)C1COc2ccccc2O1 (stereo not drawn) | 0.91 | -0.5 |
| CCc1ccc(/C(C)=N/NC(=O)c2c[nH]c3ccccc23)s1 | 1.21 | 1.56 |
| O=C(CCNC(=O)c1ccc([N+](=O)[O-])cc1)Nc1ccc(F)c(F)c1F | 0.57 | 1.7 |
| CCc1ccc(Oc2nnnn2-c2ccc(C(N)=O)cc2)cc1 | 0.81 | -0.39 |
| Cc1ccc(-c2nc(C3CCCN(S(=O)(=O)c4ccc(C(F)(F)F)cc4)C3)no2)cc1 (stereo not drawn) | 0.98 | -1.11 |
| Cc1onc(-c2ccccc2Cl)c1C(=O)NNC(=O)c1cccc(F)c1 | 0.02 | 0.22 |
| C/C(=N\NC(=O)c1cc2ccccc2cc1O)c1ccc(C)o1 | 6.72* | 4.42* |
| CCOC(=O)c1sc(=NC(=O)c2ccc(C)c(C)c2)n(C)c1C | 0.06 | 2.15 |
| CCC(C)c1ccc(NC(=O)C2CCN(c3ncccn3)CC2)cc1 (stereo not drawn) | 0.08 | -0.54 |
| CN1/C(=C\C(=O)c2ccco2)C(C)(C)c2ccccc21 | 1.34 | 0.16 |
| CCOCCSc1nc2c(c(=O)[nH]c(=O)n2C)n1CCCc1ccccc1 | 0.74 | 0 |
| CCN(c1ccccc1)S(=O)(=O)c1ccc(Cl)c(C(=O)OCC(=O)c2[nH]c(C)c(C(C)=O)c2C)c1 | 0.56 | 0.26 |
| COCCNC(=S)N1CCc2cc(OC)c(OC)cc2C1COc1ccc(F)cc1 (stereo not drawn) | 1.28 | -0.09 |
| CC12COC3(C(=O)Nc4ccc(F)cc4)CC1CCC32C (stereo not drawn) | 0.18 | 1.36 |
| COc1ccc(CCNC(=O)CCCn2ncn3c(cc4occc43)c2=O)c(OC)c1 | 0.7 | 1.44 |
| Cn1cnnc1SCCC(=O)Nc1ccc(Cl)cc1 | 0.87 | 0.9 |
| COc1ccc(CNC(=O)C(C)N2C(=O)COc3ccc(C)cc32)c(OC)c1 (stereo not drawn) | 1.88 | 0.38 |
| O=C(Cn1nc(-c2ccc(Cl)cc2)c2ccccc2c1=O)NN1CCOCC1 | 3.68 | -0.34 |
| CC(C)C(NC(=O)c1ccc(Cl)cc1)C(=O)O (stereo not drawn) | 1.52 | 0.26 |
| Nc1nnc(Cc2ccc(Cl)cc2Cl)s1 | 0.14 | 0.33 |
| CCOc1ccc(-c2c(C(=O)N/N=C/c3ccncc3)nnn2-c2nonc2N)cc1 | 0.51 | -0.95 |
| COC(=O)CNC(=O)C(C)NC(=O)CNC(=O)OCc1ccccc1 (stereo not drawn) | 0.1 | 1.35 |
| CC(C)(C)NC(=S)Nc1ccc(Br)cc1 | 0.53 | -0.7 |
| COc1ccc(/C=N/Nc2ccc(C(F)(F)F)cc2[N+](=O)[O-])cc1O | 0.96 | 0.51 |

3 of the entries above in order of their number in KCNQ2 enhance baseline, smallest number first.
| structure | KCNQ2 enhance | KCNQ2 enhance baseline |
| --- | --- | --- |
| Cc1ccccc1NC(=O)CSCCO | 0.04 | -1.17 |
| CNC(=O)c1ccccc1S(=O)c1ccccc1C#N (stereo not drawn) | 0.09 | -1.13 |
| CCC(C)c1ccc(NC(=O)C2CCN(c3ncccn3)CC2)cc1 (stereo not drawn) | 0.08 | -0.54 |

Full records from above:
`CCOCCSc1nc2c(c(=O)[nH]c(=O)n2C)n1CCCc1ccccc1` as listed: KCNQ2 enhance: 0.74; KCNQ2 enhance baseline: 0
`CCN(c1ccccc1)S(=O)(=O)c1ccc(Cl)c(C(=O)OCC(=O)c2[nH]c(C)c(C(C)=O)c2C)c1` as listed: KCNQ2 enhance: 0.56; KCNQ2 enhance baseline: 0.26

Screens as filed in PubChem BioAssay.

An excerpt. The share of hits here may be higher or lower than overall.
